Bioassay records from PubChem BioAssay.
ClpP mod = qHTS Assay for Activators of ClpP; ATP-dependent Clp protease proteolytic subunit (Bacillus subtilis (strain 168)), P80244; purified B. subtilis ClpP, FRET peptide cleavage, 20 min; Potency, µM (doses to about 57.5 µM), for the others: top-dose activity change, negative = active; 1.9% of 340,000 active; active = well fitted falling curve with a large enough effect; inconclusive = small, poorly fitted or top-dose-only effect; inactive = no such curve, though single readings can be large or run the other way; further: potency means the concentration at half of the fitted maximal effect; the source files actives as falling curves though it sought activators and does not explain the sign; nearly all actives have a fitted effect of over 65% in size; many hits overshoot -100%
Target sequence (P80244 whole entry, looked up): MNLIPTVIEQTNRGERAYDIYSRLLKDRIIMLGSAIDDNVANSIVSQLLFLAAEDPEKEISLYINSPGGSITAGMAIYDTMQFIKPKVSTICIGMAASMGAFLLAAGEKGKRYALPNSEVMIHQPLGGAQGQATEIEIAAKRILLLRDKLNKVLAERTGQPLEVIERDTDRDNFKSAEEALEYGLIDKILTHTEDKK
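Buffer: 100 mM Tris/HCl pH8, 100 mM KCl, 0.05% low protease BSA, 2.5% glycerol, 0.01% Tween-20. ClpP 10 microg/mL final; 20 min RT; delta FRET normalized to ADEP and DMSO controls.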
gsp agonist = activates gsp, the McCune-Albright syndrome mutation. AID 624287. gsp mutant cells, cAMP HTRF, 30 min; control for the full effect not named in the record. Potency, µM (top dose mostly 76.9 µM), for inactives: at the top dose activation (cAMP increase), most hits filed as activators. 0.13% of 340,000 active; active = well fitted activation curve with a large enough effect; inconclusive = small, poorly fitted or top-dose-only effect, or another doubt; inactive = no such curve, though single readings can be large or run the other way; cell line not stated here;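 further: phosphodiesterase inhibitor Ro 20-1724 added with compounds to block cAMP breakdown; potency means the concentration at half of the fitted maximal effect; nearly all actives have a fitted effect of over 60% in size; about a fifth of the inactives were tested at one dose only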
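Cells stably selected in G418 were plated at 2000/well, grown 16-24 hr, then given compounds in DMSO with the PDE inhibitor […] (300 uM solution added) for 30 min at 37C; cAMP was read by HTRF.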
D2 potentiator = positive allosteric modulators of human D2 dopamine receptor | DiscoveRx D2 beta-arrestin cells, luminescence, 90 min; 100% = 57 uM dopamine signal | potentiation, % (concentration not given with the values) | 0.23% of 360,000 active; active = potentiation of 50% or more; inconclusive = 30% to 50%; inactive = 30% or less;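 further: compound concentration not given in the record; tested on top of an EC20 dose of dopamine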
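PathHunter D2 cells, attached overnight at 37 deg C, received compound in DMSO plus dopamine at EC20 (50 nM final) for 90 min at 37 deg C. Beta-arrestin recruitment was read as luminescence after 1 h with detection reagent at ambient temperature.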
Menin-MLL FL inh = displaces fluorescein MLL peptide from human menin; Fluorescence polarization, fluorescein-MLL peptide displacement from menin; 290,000 tested, under 10 active; FP activity change, % at 61.4 µM; inconclusive = falling polarisation curve, or a change in total fluorescence; inactive = total fluorescence flat and polarisation flat or rising; no compound was filed as active; the % refers to the polarisation; negative = inhibition;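 further: % of control where 0% means no effect; inhibitors lower the polarisation; unlabelled MLL peptide was the positive control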
gsp antagonist = gsp mutant antagonism; 0.4% of 340,000 active; Potency, µM (top dose mostly 76.9 µM), inactives show at the top dose activity change, negative = inhibition, usual class: inhibitors; gsp-mutant cells, cAMP HTRF, 30 min; control for the full effect not named in the record; active = falling curve of any shape with a large fitted effect; inconclusive = falling curve, mostly with a smaller effect; inactive = flat or rising curve; cell line not stated here;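 further: intracellular cAMP measured with PDE inhibitor Ro 20-1724 present during compound exposure; potency means the concentration at half of the fitted maximal effect; on the % scale 0 is the no-effect control and ±100 the full control effect; nearly all actives have a fitted effect of over 65% in size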
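Measurement of cellular cAMP by homogeneous time-resolved fluorescence following a 30 min compound exposure at 37C. The PDE inhibitor […] was present throughout; the assay buffer was DPBS with 0.05% BSA and 0.005% Tween 20.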
TRPV1 PAM = human TRPV1 potentiation | Q8NER1 | TRPV1-expressing cells, Fluo-8 calcium influx, capsaicin EC20 potentiation; host cell line not named in the record; control for the full effect not named in the record | potentiation, % at 8.33 µM | 0.02% of 320,000 active | AID 540277; active means potentiation above 80%; inconclusive means 30% to 80%; inactive means below 30%; further: 0% is about no effect
Target sequence (Q8NER1 whole entry, looked up): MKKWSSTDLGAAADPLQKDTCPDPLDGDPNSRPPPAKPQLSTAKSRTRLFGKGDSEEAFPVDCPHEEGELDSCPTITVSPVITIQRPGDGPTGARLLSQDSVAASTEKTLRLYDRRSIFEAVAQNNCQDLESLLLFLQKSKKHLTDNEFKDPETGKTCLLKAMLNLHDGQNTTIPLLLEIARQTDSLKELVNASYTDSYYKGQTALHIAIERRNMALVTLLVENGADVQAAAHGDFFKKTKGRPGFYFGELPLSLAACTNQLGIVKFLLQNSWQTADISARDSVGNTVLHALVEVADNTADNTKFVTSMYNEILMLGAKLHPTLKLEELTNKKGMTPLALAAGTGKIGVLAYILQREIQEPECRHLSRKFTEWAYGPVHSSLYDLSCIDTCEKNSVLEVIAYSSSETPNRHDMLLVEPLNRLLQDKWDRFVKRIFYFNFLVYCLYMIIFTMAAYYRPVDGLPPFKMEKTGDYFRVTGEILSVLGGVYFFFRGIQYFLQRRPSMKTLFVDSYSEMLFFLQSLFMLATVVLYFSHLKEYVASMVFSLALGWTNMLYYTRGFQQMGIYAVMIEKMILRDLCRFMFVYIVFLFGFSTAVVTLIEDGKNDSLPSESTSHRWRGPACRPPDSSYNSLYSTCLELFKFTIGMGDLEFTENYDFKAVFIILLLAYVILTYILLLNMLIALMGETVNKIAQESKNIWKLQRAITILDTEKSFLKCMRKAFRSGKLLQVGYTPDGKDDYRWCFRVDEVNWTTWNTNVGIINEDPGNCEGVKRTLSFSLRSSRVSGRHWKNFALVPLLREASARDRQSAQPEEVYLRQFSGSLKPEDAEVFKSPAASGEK
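TRPV1-expressing cells were cultured overnight at 35.5C and loaded with Fluo-8 calcium dye for 40 to 90 min at room temperature. After a 10 s baseline, compound was added and calcium influx was read kinetically for 3 min (ex 480/em 520 nm).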
Sfp PPTase inh = inhibitors of Bacillus subtilis Sfp phosphopantetheinyl transferase; Potency, µM, without a hit: max response, negative = inhibition, actives largely listed as inhibitors; AID 1490; 3.5% of 310,000 active; Q9F4F7; Biochemical Sfp PPTase activity, qHTS; active means well fitted inhibition curve with a large enough effect; inconclusive means small, poorly fitted or top-dose-only effect, or another doubt; inactive means no such curve, though single readings can be large or run the other way;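 further: the enzyme is Sfp with the accession as filed and its product quenches rhodamine fluorescence; potency means the concentration at half of the fitted maximal effect; 0% = enzyme reaction without inhibitor and -100% = no enzyme wells; top concentration of the series not given in the record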
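Fluorescence-quenching assay with 15 nM Sfp, 5 uM rhodamine-CoA and 12.5 uM BHQ-2-labelled ybbR peptide in pH 7.6 Hepes/MgCl2 buffer. Enzyme was pre-incubated with compound for 15 min at room temperature. Rate was taken from the 30-min fluorescence change (525/598 nm).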
* hit, by the source's call; ? = inconclusive; · = not tested or not shown; & = joins results of further samples; [ ] = another dose, or the depositor's remark.

SMILES | ClpP mod | gsp agonist | D2 potentiator | Menin-MLL FL inh | gsp antagonist | TRPV1 PAM | Sfp PPTase inh
COc1cccc(C(=O)OC2CCN(C)CC2)c1 | · | 7% | -5 | 3.3 | 13% | 3 | 28%
COC(=O)C1=NN[C@H](C(=O)OC)[C@H]1c1ccccc1 | -1.1% | -21% | -16 | 6.3 | -13% | 4 | 28%
CCOc1cc(NC(=O)C2CC2)c(OCC)cc1NC(=O)CCn1nnc2ccccc21 | 3.0% | 11% | 16 | 2.0 | 6% | ? | -4%
Nc1nc(-c2cc3ccccc3o2)cs1 | · | 12%[15.4 µM] | -2 | 2.7 | 11% | -7 | -1%
CCCNS(=O)(=O)c1ccc(N2CCCC2=O)c([N+](=O)[O-])c1 | 1.4% | -27% | -2 | 1.6 | 13% | 24 | 2%
CCCC(=O)NC(=S)Nc1ccccc1OC | -0.3% | 1% | -15 | -1.7 | -1% | 4 | -6%
CC(C)(C)c1nc(CN2CCCCC2)cc(CN2CCCCC2)c1O | -4.9% | -1% | -32 | 3.1 | -8% | -7 | -3%
O=C(CCC(=O)N/N=C/c1ccccc1O)NCc1ccccc1 | -13% | 0%[15.4 µM] | -41 | 3.8 | 7% | 1 | 19%
CCc1nnc(NS(=O)(=O)c2ccc(N/C=C(\C=O)c3nc4cc(Cl)ccc4o3)cc2)s1 | · | ? | -9 | 11 | ? | -11 | -12%
COC(=O)c1ccc(C(=O)OC)c(NC2=NS(=O)(=O)c3ccccc32)c1 | 18% | ? | -8 | 8.3 | 12% | 0 | 19%
CCN(CC)C(=O)c1ccc(S(=O)(=O)NCc2cccnc2)cc1 | -0.4% | -2% | -4 | 3.7 | -11% | 8 | -6%
COc1cccc(/C=N/Nc2nc3ccccc3n3cnnc23)c1 | -6.4% | -46%[inhibitor] | -13 | 3.8 | -19% | 5 | 18%
CC1CCN(C(c2ccc(N(C)C)cc2)c2nnnn2Cc2ccc(F)cc2)CC1 (stereo not given) | -7.1% | -3% | -1 | ? | 4% | 6 | -2%
CCCc1ccc(C(=O)NNc2cccc(C)c2)cc1 | · | 19% | -19 | -0.4 | 3% | -5 | -7%
CC(C)OCCCNC(=O)Cn1ncc2c(=O)oc3ccccc3c21 | 0.4% | -2% | -3 | 2.8 | -1% | -1 | 16%
COc1ccc(N2CCN(C(CNC(=O)C(=O)NCc3ccc4c(c3)OCO4)c3ccco3)CC2)cc1 (stereo not given) | -2.0% | 1% | -3 | -0.1 | 11% | ? | -2%
COc1ccnc2c1c(=O)n(Cc1cccc(Cl)c1)c(=O)n2C | -4.3% | 25% | -3 | -1.9 | -1% | 15 | 5%
O=S(=O)(c1cccc2nsnc12)N1CCc2ccccc21 | 1.8% | -3% | -9 | 0.9 | -26% | 11 | -8%
Clc1ccc(CSc2cc3c(nn2)-c2ccccc2CC3)cc1 | 4.3% | 20% | -16 | 0.3 | 4%[15.4 µM] | 10 | 5%
COC(=O)C1CCN(C(=O)COC(=O)c2ccc(=O)n(Cc3ccccc3)n2)CC1 | 41% | -4% | 6 | · | 12% | 7 | ·
O=C(COC(=O)c1ccc2c(c1)OCCO2)Nc1ccc(F)cc1F | -3.5% | -14% | -3 | · | 12% | · | ·
CC1CCN(S(=O)(=O)c2ccc3ncn(CC(=O)N4CCN(C)CC4)c(=O)c3c2)CC1 | · | -2%[15.4 µM] | -4 | 1.9 | -8% | -7 | 4%
COCc1ccc(C(=O)N2CCCC(Nc3ccc(F)c(F)c3)C2)s1 (stereo not given) | 4.1% | -2% | -19 | · | -10% | -17 | 7%
O=C(Cn1cnc2c(OCc3ccccc3)ncnc21)NCc1ccccc1 | -1.4% | · | 3 | · | 9% | · | ·
CCOc1ccc(NC(=O)CN2C(=O)CSc3ccc(S(=O)(=O)N4CCOCC4)cc32)cc1 | 0.8% | 11% | -1 | 7.0 | -1% | -5 | 10%

(more compounds)
SMILES | ClpP mod | gsp agonist | D2 potentiator | Menin-MLL FL inh | gsp antagonist | TRPV1 PAM | Sfp PPTase inh
O=C(CCCc1c[nH]c2ccccc12)Nc1ccc(S(=O)(=O)Nc2ncccn2)cc1 | · | -6%[15.4 µM] | -2 | 3.5 | -5% | · | 16%
COc1ccc(Cc2ccccc2C(=O)O)cc1 | · | ? | -5 | · | 1% | · | ·
CC(C)CNS(=O)(=O)c1cc2c3c(c1)CCC(=O)N3CCC2 | -2.2% | -5% | -3 | · | -8% | 7 | 0%
COc1cc2ccnc(C=O)c2cc1OC | -9.3% | ? | -11 | · | · | · | ·
O=C(CN1C(=O)CSc2ccc(S(=O)(=O)N3CCOCC3)cc21)NCCCN1CCc2ccccc2C1 | -1.6% | 0% | -21 | -0.5 | -5% | 12 | 9%
CC1(C)C(/C=C/C=C/C=C/C=C2\N(CCCCS(=O)(=O)O)c3ccc4ccccc4c3C2(C)C)=[N+](CCCCS(=O)(=O)[O-])c2ccc3ccccc3c21 | 3.3% | · | -11 | 22 | -4% | · | 50µM*
CCOc1cc(C2C3=C(CC(C)(C)CC3=O)N(CCCOC)C3=C2C(=O)CC(C)(C)C3)ccc1O | -1.6% | 3% | 1 | -2.6 | -11% | 5 | -12%
COc1cccc(NC(=O)CN(C)C(=O)c2ccc(S(=O)(=O)Nc3ccccc3F)cc2)c1 | 0.8% | 2% | -20 | · | -11% | 15 | ·
S=C(Nc1ccccc1)N(CCN1CCOCC1)Cc1cccc(Cl)c1 | -0.5% | -29% | -4 | -0.2 | -12% | -21 | -5%
C/C(N)=C(/C#N)C(=O)COC(=O)c1cccc(O)c1 | · | ? | -2 | 2.0 | 0% | 7 | 20%
CC1Sc2ccc(S(=O)(=O)CCC(=O)N(C)Cc3ccco3)cc2NC1=O (stereo not given) | 0.2% | -9% | -3 | · | 4% | 19 | 7%
Cc1ccc(C(=O)NN2CC(O)=C(c3nc(-c4cccc([N+](=O)[O-])c4)cs3)C2=N)cc1 | · | 7%[15.4 µM] | -4 | -3.0 | 4% | -4 | -1%
O=c1ccc(NS(=O)(=O)c2ccccc2)cn1Cc1ccc(Cl)c(Cl)c1 | -0.9% | 14% | -4 | ? | ? | 10 | 0%
Cc1cccc(NC(=O)C2CC(O)CN2C(=O)Oc2ccccc2)c1 (stereo not given) | · | -2%[15.4 µM] | -1 | · | · | 4 | 1%
CNS(=O)(=O)c1ccc(C(=O)NCC(=O)NCCc2ccc3c(c2)OCCO3)cc1 | -2.2% | ? | -13 | · | -7% | 5 | ·
O=S(=O)(c1ccc(N2CCN(Cc3ccccc3)CC2)nc1)N1CCCC1 | -0.8% | -1% | -4 | · | -7% | -12 | ·
CCCN1CCC(=O)N([C@H](CSc2ccccc2)CC(C)C)CC1 | 1.1%&0.3% | -55%[inhibitor] | -29 | -1.0 | 6% | 26 | 10%
COc1ccccc1N1CCN(C2CCN(S(=O)(=O)c3ccc4ccccc4c3)CC2)CC1 | -1.1% | 5% | -36 | -1.4 | 0% | 26 | 1%
O=C(NC(=S)N1CCN(c2ccc(F)cc2)CC1)c1ccccc1 | -1.3% | 0% | -17 | · | · | · | ·
COC(=O)c1[nH]c2cc(OC)ccc2c1NC(=O)CCN1CCN(c2cccc(C)c2C)CC1 | 25µM* | 2% | -11 | -0.8 | -17% | -7 | 1%
Cc1ccc(S(=O)(=O)NCc2cn3ccccc3n2)c(C)c1 | -1.9% | 0% | -3 | · | 1% | -40 | 4%
Cc1ccc(C2OC3=C(C(=O)CC(C)(C)C3)C(N)=C2C#N)o1 (stereo not given) | -0.6% | -4%[15.4 µM] | 3 | 0.5 | 5% | 2 | 19%
O=C(c1sc2ccccc2c1Cl)N(Cc1cccs1)C1CCS(=O)(=O)C1 (stereo not given) | -2.0% | -21% | -2 | -8.1 | -7% | ? | -3%
COc1ccc(-c2cc(C(F)(F)F)nc(SCC(=O)NCCN3CCOCC3)n2)cc1OC | -24% | 1% | -13 | -1.2 | 17% | -15 | -2%
COc1nn(CC(=O)N2N=C(C(F)F)CC2(O)C(F)F)cc1[N+](=O)[O-] (stereo not given) | 3.6% | ? | -10 | 6.1 | 0% | -18 | -11%

Next section.
SMILES | ClpP mod | gsp agonist | D2 potentiator | Menin-MLL FL inh | gsp antagonist | TRPV1 PAM | Sfp PPTase inh
O=[N+]([O-])c1ccc(-c2nc(NCc3ccccc3)c3ccccc3n2)cc1 | · | 2%[15.4 µM] | -8 | 4.1 | 7% | 9 | 6%
COCCn1c(=NC(=O)/C=C/c2ccccc2)sc2cc(NC(C)=O)ccc21 | 13% | 6% | -17 | 0.8 | -7% | 0 | -27%
Nc1ccn(CC(=O)NCc2ccc3c(c2)OCO3)c(=O)n1 | 2.3% | · | -15 | · | 6% | 0 | ·
O=C(CN1C(=O)COc2ccccc21)N(Cc1ccccc1)Cc1ccccn1 | -1.6% | -47%[inhibitor] | 0 | -0.9 | -11% | 2 | -3%
O=C(C1CCC1)N1CCN(S(=O)(=O)c2ccc(F)cc2)CC1 | 2.6% | -70%[inhibitor] | -26 | · | -7% | 6 | ·
COC(=O)/C=C1\S/C(=N/NC(=O)c2ccc(OC)cc2)NC1=O | · | -5%[15.4 µM] | -2 | 5.5 | 4% | 2 | 10%
CC(C)OC(=O)CC12CN3CN(C1)CC(CC(=O)OC(C)C)(C3)C2=O | 1.2% | -1%[15.4 µM] | -3 | -1.2 | 2% | -8 | 18%
O=C(c1ccc(F)cc1)N1CCCCC(S(=O)(=O)c2ccccc2)C1=O (stereo not given) | -3.3% | -37%[inhibitor] | 13 | 2.4 | 4% | -4 | 79µM*
Cc1ccc(S(=O)(=O)N2CCN(C(=O)C3CC3C)CC2)c(C)c1 (stereo not given) | -0.5% | -1%[15.4 µM] | 5 | · | 8% | -17 | ·
COC(=O)Nc1ccc(S(=O)(=O)Nc2ncccn2)cc1 | -1.8% | -1% | -12 | -3.3 | 2% | -3 | 17%
NNC(=O)CN1C(CN2CCOCC2)=Nc2ccc(Br)cc2C1c1ccccc1 (stereo not given) | · | 0% | -13 | -0.9 | 10% | 14 | 12%
O=C(Nc1ccccc1F)c1cccc(C(=O)Nc2ccccc2F)c1 | · | 8% | -4 | 2.2 | -5% | 0 | 9%
